Assay outcomes: PubChem BioAssay, Fisher Drug Discovery Resource Center
NPYLR7 ag – agonists of mosquito NPYLR7 receptor, primary screen, cell-based, Aedes aegypti, calcium fluorescence, mosquito biting behavior; Aedes aegypti neuropeptide Y-like receptor 7 (NPYLR7); HEK293T NPYLR7/Galpha15, GCaMP6s calcium fluorescence; activation, % at 10 µM; hit rate 0.15% among 270,000; AID 1259423, 2018; in the data active = activation above about 40%;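 also: 0% = vehicle and 100% = reference agonist at the receptor; some compounds past the cut are filed as inactive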
NPYLR7 ag max-min – recorded beside NPYLR7 ag, whose call it bears; activation, %; measured here: Max-Min RFU normalised activation; some inactives read as strong as hits;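 span of the calcium signal over five minutes; 0% = vehicle and 100% = native peptide agonist; compound fluorescence can raise it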
Active calls of the source: *; & = joins results of further samples.

SMILES	NPYLR7 ag	NPYLR7 ag max-min
O=C(CN1CCCC1c1ccsc1)NCc1ccco1 (configuration not stated)	2	2
O=C1COCc2cc(-c3ccncc3)ccc2N1Cc1ccccc1	7	5
COc1ccc2sc(N(CCCN3CCOCC3)C(=O)c3cc(C)on3)nc2c1	2	2
CN(Cc1c(F)cccc1Cl)C(=O)CNC(=O)C1CC1	4	1
CCC(CC)(CO)Nc1nc(C(F)F)nc2ccccc12	-6	-6
O=C(CNC(=O)C1CCCC1)NCc1cc(F)ccc1Br	2	11
Cc1ccc(-c2ccnc(N3C[C@H](O)[C@@H](N4CCCC4)C3)n2)c(C)n1	-7	-10
CN(CC(=O)Nc1ccc(Cl)cc1)CC(=O)N(C)Cc1ccc(N(C)C)cc1	2	0
O=C(NCC(O)C(F)(F)F)c1c(O)cc(Cl)cc1Cl (configuration not stated)	7	6
Cc1[nH]c2ccccc2c1C1CCN(CC2(CO)COC2)CC1	6	2
CC(=O)NCCn1ccnc1-c1cc2ccccc2s1	14	11
COc1ccc(OC)c(S(=O)(=O)N2CCNCC2)c1	2	-3
COC(=O)c1ccc(C(=O)OC)c(NC(=O)c2cc3c(ccc4ccccc43)oc2=O)c1	-2	-12
COc1cc(-c2ccnc(N3CCN(C(=O)C4C[C@H]4c4ccccc4)CC3)n2)cc(OC)c1OC (some centres not stated)	1	3
NS(=O)(=O)c1ccc(N=Cc2ccc([N+](=O)[O-])cc2)cc1	23	19
COCCN(CC(=O)N(CCc1c[nH]c2ccccc12)Cc1ccc(F)cc1)C(=O)c1cccc(OC)c1	13	15
N[C@H]1CN[C@H](C(=O)N2CCN(S(=O)(=O)c3ccccc3)CC2)C1	23	7
CNC(=O)C(C)N(C)C(=O)CNS(=O)(=O)c1ccc(F)c(C)c1 (configuration not stated)	11	-5
Cc1cc(NC(=O)COC(=O)c2cc3ccccc3o2)no1	2	8
CN(CC1CCCO1)C(=O)Nc1ccccc1C(=O)N1CCCCC1 (configuration not stated)	5	4
CC1(c2cccc(Br)c2)NC(=O)N(CC(=O)N2CCCCCC2)C1=O (configuration not stated)	6	4
CCn1c(SCC(=O)NCc2ccccc2)nc2c(c1=O)SC(C)C2 (configuration not stated)	-5	-7
CCOC(=O)c1ccc2c(c1)nc(SCc1ccc(Br)cc1)n2CCCOC(C)C	14	5
COc1cc(-c2nc(C=Nc3ccc(Cl)cc3C)c(O)o2)cc(OC)c1OC	-3	-7
CCOC(=O)c1c(N)nn(C(=O)Cc2ccccc2)c1-c1ccc(OC)cc1	3	-5
Cc1noc(-c2ccc(OC(F)(F)F)cc2)c1C(=O)NCc1ccc2c(c1)OCO2	4	0
Cn1ccnc1CN1CCC2(CCCN(Cc3cccc(F)c3F)C2)C1 (configuration not stated)	9	8
Cc1ccc(CN(CCc2c[nH]c3ccccc23)C(=O)CN(C(=O)Nc2ccc(F)c(F)c2)C(C)C)cc1	18	9
CC(C)C/C=C(\CN1CC[C@H](CO)[C@@H](O)C1)c1ccccc1	5	1
COc1nc2ccccc2cc1-c1cnccc1C	6	3
CN(CC(=O)Nc1ccc(OC(F)(F)F)cc1)C(=O)CC1CC2CCC1C2 (configuration not stated)	4	2
CCN(CCC(F)(F)F)C(=O)c1cc(C(C)C)nc2c1cnn2C(C)C	-3	-4
CC(C)Cn1c2c(=O)[nH]c(=O)n(C)c2n2c(-c3ccc(Br)cc3)nnc12	6	0
Cc1ccc(C(=O)N2CCOc3ccncc32)cc1C	1	0
O=C(NCCCn1cncn1)c1cccc(-c2ccc(O)cc2)c1	2	2
Cc1cc(C)n(-c2nnc(Cl)c(N)c2N)n1	-9	-9
CCCCNC(=O)C(NS(=O)(=O)c1ccc(C)cc1)C(C)C (configuration not stated)	7	9
CNc1cncc(-c2ccc(OC)nc2)n1	4	1
CC1CC(OC(=O)c2ccccc2O)CC(C)(C)C1 (configuration not stated)	5&19	0&13
CCN1C(=Cc2ccc3cc(C)ccc3[n+]2CC)Sc2ccccc21	74*	73*
COC(=O)C1CCCc2c1ccn2CC=C(C)C (configuration not stated)	22	10
O=C1CCC(C(=O)Nc2ccc(F)cc2-c2ccc(F)cc2)N1 (configuration not stated)	-4	-2
CCc1ccccc1NC(=O)NCCNc1ccc(Nc2cccc(C)n2)nn1	17	8
Nc1c(C(=O)Nc2ccccc2)c2nc3ccccc3nc2n1/N=C\c1ccccn1	9	2
Cc1ccc(F)cc1NS(=O)(=O)c1ccc(F)cc1[N+](=O)[O-]	2	3
Cc1ccc(-n2nnc(C(=O)Nc3nccs3)c2C)cc1C	-2	-7
O=Cc1cccn1-c1cccc(C(=O)O)c1	-10	-17
CC1(Cc2ccccc2F)C(=O)Nc2c(Cl)ccc(Cl)c21 (configuration not stated)	1	1
CC(C)c1csc(C(=O)NCC2CCCN(S(C)(=O)=O)C2)n1 (configuration not stated)	-1	-2
COc1cccc(CNc2nn[nH]n2)c1OCc1ccc(C)cc1	-6	-11
CCc1cc(C(=O)NCc2cc(C)cc3c(C)c(CC)[nH]c23)n(C)n1	3	1
O=C1CCCN1CC(=O)N1CCC2(CCCN(Cc3ccc(F)cc3)C2)C1 (configuration not stated)	2	-2
C=CCN(C/C=C/c1ccccc1)C(=O)c1cc(C)nc(C)n1	-1	-5
CC1=NN(C(=O)C(C)(C)C)C(O)(c2ccccc2)C1 (configuration not stated)	-5	-8
COc1ccc(S(=O)(=O)NC(=O)C2(C)CCN2C(=O)Cc2ccc(C(C)(C)C)cc2)cc1 (configuration not stated)	8	8
S=c1[nH][nH]c2nc3ccccc3n12	1	0
Cc1ccccc1CC(=O)N1CCOC(COc2ccc(F)cc2)C1 (configuration not stated)	28	25
CCc1[nH]c2ccc(CNC(=O)CCC(=O)NC3CCCC3)cc2c1C	3	-5
CSc1nc(N2CCOCC2)c2cnn(CCNC(=O)Cc3ccc(Cl)cc3)c2n1	-3	-5
Cc1ccc(-c2cc(C(=O)N3CCN(c4ccccc4F)CC3)n(-c3cccc(Cl)c3)n2)cc1C	0	4

Continuation.
SMILES	NPYLR7 ag	NPYLR7 ag max-min
CC1CCCN(C(=O)COc2c(Br)cc(Br)cc2Br)C1 (configuration not stated)	-9	-11
COc1ccc(Br)c(-c2nc(Cc3ccc(OC)c(OC)c3)no2)c1	-1	-4
O=C(CSc1nnc(-c2ccc(F)cc2)o1)c1ccc2c(c1)OCO2	2	2
Cc1cnc(CNC(=O)c2oc(COc3ccccc3)cc2C)cn1	7	5
CNCc1cc(/C=C/c2ccccc2)ccc1OC	5	22
N#Cc1cccc(CSc2nc(Oc3ccccc3Cl)cc(C(F)(F)F)n2)c1	10	11
COc1ccc(/C=C/CN2CCN(c3ncccc3C(N)=O)CC2)cc1	4	2
CC(=O)C1=C(C)NC(=O)C(C#N)C1c1ccncc1 (configuration not stated)	3	10
COc1ccc(-c2cc(C(=O)N3CCN(c4ccccc4Cl)CC3)n(-c3ccccc3)n2)c(OC)c1	14	10
O=S(=O)(c1ccc(OC(F)(F)F)cc1)N1CCN(CCCOC(c2ccc(Cl)cc2)c2ccc(Cl)cc2)CC1	3	2
O=C(c1cc2n(n1)C(C(F)(F)F)CC(c1ccco1)N2)N1CCCCCC1 (configuration not stated)	0	-3
CCOc1ccc(C2=NC(=Cc3cccc(OC)c3)C(=O)O2)cc1	-1	-1
Cc1nc(C)c(-c2ccc(SCC(=O)Nc3ccc(C)c(F)c3)nn2)s1	-3	-12
O=C(c1ccc(CSc2nc(Cl)cc(N3CCOCC3)n2)cc1)N1CCC(Cc2ccccc2)CC1	-3	3
CCC(c1ccc(Br)cc1)N(C)CC(N)=O (configuration not stated)	-2&6	-2&2
Cc1sc2ncn(CC(=O)c3cc(C)n(C)c3C)c(=O)c2c1C	0	5
Cc1ccc(C(=O)NCC(C)n2nc(C)cc2C)cc1 (configuration not stated)	1	1
O=C(CSc1nnc(Cn2ccc(=O)[nH]c2=O)o1)NC1CC1	-4	3
O=C(CCn1cnnn1)N1CCC(CCC(=O)N2CCN(c3ccccc3)CC2)CC1	5	5
Cc1nc2c(c(=O)n1C)CCN(C(=O)CCc1ccccc1O)CC2	-1	-2
COc1cccc2c(=O)c3ccoc3n(C)c12	3	2
CN1C(=O)CCc2cc(NC(=O)C3CCCCN3CC(F)F)ccc21 (configuration not stated)	8&1	4&-2
CC(C)CSc1nc(-c2ccco2)c(C#N)c(=O)[nH]1	1	9
O=C(CNC(=O)c1ccco1)NC1CCCCCC1	1	-1
O=C(Nc1ccc(C(=O)O)c(O)c1)c1cc(Cl)cc(Cl)c1	9	4
CCC1CN(C(=O)Nc2ccc3c(c2)CCC3)CCO1 (configuration not stated)	1	0
C=C(Cl)CN1CCN(CC(C)C)CC1	29	21
Cc1noc(C)c1CC(=O)N1CCc2c(cnc(C)c2CNC(=O)/C=C/c2ccccc2)C1	2	1
CCOC(=O)c1c(NC(=O)C(C)(C)OC(C)=O)c(-c2ccc(OC)cc2)cn1Cc1ccccc1	-2	-7
O=C(NCCSc1ncn[nH]1)c1ccc2nc(Cc3ccccc3F)oc2c1	4	2
CCc1cc(Br)ccc1S(=O)(=O)N1CCN(Cc2cc(=O)c(OCc3cc(C)cc(C)c3)co2)CC1	28	22
CCOc1cccc2sc(=NC(=O)c3ccc(N4C(=O)CCC4=O)cc3)n(CC)c12	2	-1
Cc1ccc(F)cc1NC(=O)c1cc2ccccc2oc1=O	12	6
CCC(CC)n1nc(C)cc1NC(=O)Cc1ccc(S(C)(=O)=O)cc1	1	28
CCOc1ccc(S(=O)(=O)N2CCN(Cc3cc(F)cc4c3OCOC4)CC2)cc1	0	31
O=C(O)c1ccc(N2C(=O)/C(=C/c3ccc(-c4ccc([N+](=O)[O-])cc4)o3)C=C2c2ccccc2)cc1	7	19
CCCN(CC(=O)N(CCc1c[nH]c2ccccc12)Cc1ccc(C(F)(F)F)cc1)C(=O)C(C)C	-4	8
Cc1cc(NC(=O)c2ccc(C)c(F)c2)n(C2CCS(=O)(=O)C2)n1 (configuration not stated)	-2	-2
CCC(=O)NCc1ccccc1-c1ccc(F)cc1OC	11	4
O=C(c1ccc(F)c(F)c1)N1CCN(Cc2cc(=O)n3ccsc3n2)CC1	21	19
CCCc1nnc2c(C(=O)NCCCN(C)c3ccccc3)cccn12	-7	-10
Cc1nc([N+](=O)[O-])cn1CCC(=O)Nc1ccccc1Nc1ccccc1	13	7
C1CCN=C(Nc2nnc(C34CC5CC(CC(C5)C3)C4)s2)CC1	4	9
Cc1cc(C(=O)CSc2nnc(-c3ccco3)n2C)c(C)n1C1CC1	-2	3
CC=CC=CC(=O)OCC(=O)NC12CC3CC(CC(C3)C1)C2	13	12
CCc1ccc(N2CCN(C(=O)Nc3ccc(C)cc3)C(C)C2=O)cc1 (configuration not stated)	0	3
O=C(COC(=O)c1ccc2c(c1)C(=O)N(C1CCCCC1)C2=O)c1ccc(Br)cc1	0	-6
CC(=O)Nc1sc(SCC(N)=O)nc1-c1ccccc1	-11	-13
Cc1ccc(-n2c(SCC(=O)NCC3CCCO3)nc3c(c2=O)SCC3)cc1 (configuration not stated)	-2	-4
Cc1cc(C)n(C(C[N+](=O)[O-])c2ccccc2Cl)n1 (configuration not stated)	2	-3
Cc1ccc2nc(-c3ccccc3)nc(-c3cccc([N+](=O)[O-])c3)c2c1	-6	-7
O=C(CSc1nccs1)Nc1nc2cc3c(cc2s1)OCCO3	15	12
CC(NC(=O)c1cc(NC(=O)Nc2cccc(C(F)(F)F)c2)ccc1N1CCCC1)c1ccccc1 (configuration not stated)	-5	-2
CCOC(=O)CN(Cc1ccccc1)Cc1cccn1Cc1cccc(C)c1	20	27
CCOC(=O)c1cc(-c2ccc(N3CCN(C(=O)c4cc(C)nn4C)CC3)cc2)n(-c2ccccc2C)n1	25	19
CCOCCCN(CC(=O)N(Cc1cccn1Cc1ccccc1Cl)CC(C)C)C(=O)c1cccc(Br)c1	-3	3
O=C(c1cccc([N+](=O)[O-])c1)N1CCN(c2nc(-c3ccco3)nc3cc(Cl)ccc23)CC1	-3	-1
CC(C)c1[nH]n(-c2ccc(Cl)c(Cl)c2)c(=O)c1C1=C([n+]2ccccc2)C(=O)N(c2ccccc2)C1=O	3	1
CCN(CC)C(=O)Oc1ccc2c(ccn2Cc2ccc(Cl)cc2)c1NS(=O)(=O)c1ccccc1C	-1	4
CC1CCN(CC(=O)Nc2ccc(Br)cn2)CC1	-4&0	-6&3
O=C(CSc1nc(=O)n2ccccc2n1)NCc1ccccc1	2	0
CN1CCN(c2ccnc(C(=O)O)c2)CC1	0	2

A portion of the library (hit frequency here may not be typical).
